Screening data from PubChem.
FGF22 binding – shifts melting point of recombinant human FGF22; Q9HCT0; recombinant FGF22 thermal shift, SYPRO orange fluorescence; percent of sucrose octasulfate shift, DMSO zero; calls only at 9.99 µM; 340,000 tested, 1.5% active; AID 651658;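 active means melting point raised past a set limit in the mean and every replicate; three in four hits are not shown here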
Target sequence (Q9HCT0 whole entry, looked up): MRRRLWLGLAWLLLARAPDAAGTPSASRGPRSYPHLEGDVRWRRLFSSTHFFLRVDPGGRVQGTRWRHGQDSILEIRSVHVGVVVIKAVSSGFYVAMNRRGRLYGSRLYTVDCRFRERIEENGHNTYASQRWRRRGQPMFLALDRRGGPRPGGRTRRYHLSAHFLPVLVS
UCH37 inh – blocks the human deubiquitinase UCH37; Q9Y5K5; purified proteasome/UCH37, Ub-AMC cleavage fluorescence; inhibition, % (no concentration beside the values); 330,000 tested, 0.33% active; AID 588478;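 active means mean of two replicates above 20%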;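 further: 0% = compound-free wells with enzyme and 100% = wells lacking proteasome; stock transfer was 100 nL into about 20 µL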
Target sequence (Q9Y5K5 whole entry, looked up): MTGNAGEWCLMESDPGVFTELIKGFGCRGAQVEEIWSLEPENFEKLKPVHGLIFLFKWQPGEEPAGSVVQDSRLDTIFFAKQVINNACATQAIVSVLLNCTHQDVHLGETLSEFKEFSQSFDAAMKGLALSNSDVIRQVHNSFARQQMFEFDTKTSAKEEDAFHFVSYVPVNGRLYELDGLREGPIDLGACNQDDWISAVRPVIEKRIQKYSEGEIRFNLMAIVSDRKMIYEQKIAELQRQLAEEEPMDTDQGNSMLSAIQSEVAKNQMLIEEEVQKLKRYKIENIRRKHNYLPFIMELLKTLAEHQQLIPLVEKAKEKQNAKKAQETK
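Material: Human UCH37 enzyme supplied as purified proteasome complex | Schedule: 30 min compound-proteasome preincubation then 25 min substrate reaction, room temperature | Detection: AMC fluorescence from Ub-AMC cleavage, excitation 355 nm, emission 460 nm | Benchmarks: Wells without proteasome as full block, compound-free enzyme plus substrate as uninhibited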
A1 inh – inhibitors of the anti-apoptotic protein A1, read as caspase activation; MEF A1-2A-BIM cells, Caspase-Glo 3/7 luminescence, 3 h; percent of clofoctol response, vehicle zero; caspase activation, % (concentration not given with the values); 330,000 tested, 0.066% active; AID 2462;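 active means over half of replicate activation scores above 10%, or exactly half above 10 with the replicate mean above 10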;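 further: wells of about 30 µL received 50 nL stock; many hits fall short of the cut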
AF4-AF9 inh – MLL-AF4/AF9 protein interaction inhibition. P42568. 350,000 tested, 0.47% active. AlphaScreen, biotin-AF4 peptide binding to FLAG-AF9. inhibition, % at 10 µM. AID 651704;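 active means every replicate reaching a set inhibition limit, whatever the replicate mean, cut at about 25% in these data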;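 further: 0% = plate neutral control median and 100% = total signal loss; the record names both 10 and 1 µM as test concentration; the first replicate is given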
Target sequence (P42568 whole entry, looked up): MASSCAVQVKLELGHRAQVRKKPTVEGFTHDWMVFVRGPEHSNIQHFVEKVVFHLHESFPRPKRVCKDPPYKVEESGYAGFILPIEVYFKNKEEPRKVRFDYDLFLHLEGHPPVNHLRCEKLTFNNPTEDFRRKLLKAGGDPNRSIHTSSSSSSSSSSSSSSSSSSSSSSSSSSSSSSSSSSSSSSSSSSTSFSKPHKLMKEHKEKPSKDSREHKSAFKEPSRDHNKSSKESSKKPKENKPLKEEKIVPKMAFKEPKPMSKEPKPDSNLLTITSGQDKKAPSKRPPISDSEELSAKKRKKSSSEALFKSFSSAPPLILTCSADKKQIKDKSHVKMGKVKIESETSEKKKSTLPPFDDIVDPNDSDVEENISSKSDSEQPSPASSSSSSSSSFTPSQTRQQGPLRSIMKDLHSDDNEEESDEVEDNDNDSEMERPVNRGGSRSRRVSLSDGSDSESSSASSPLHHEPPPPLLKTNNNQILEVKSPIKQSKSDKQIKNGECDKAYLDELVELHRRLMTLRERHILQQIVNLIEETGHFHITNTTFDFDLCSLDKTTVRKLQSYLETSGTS
Beta apoptosis – beta cell apoptosis inhibition | INS-1E cytokine-induced death, ATP luminescence, 48 h; percent of positive-control rescue, neutral wells zero | AID 435005 | 300,000 tested, 0.8% active | protection from apoptosis, % (no concentration beside the values);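 active means all replicates at 75% or more, or half of them and the mean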;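 further: 0% = cytokine-treated negative control wells and 100% = positive control rescue; higher means more ATP so stronger rescue from cytokine killing; wells of about 40 µL received 100 nL stock; the first replicate is given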
Ecoli rRNA inh – inhibitors of bacterial rRNA selective over humanized ribosomes. E. coli WT GFP vs humanized-ribosome RFP mutants, fluorescence, 24 h; stronger effect = lower value; DMSO median 0, no signal -100. GFP signal change (wild-type ribosome), % (no concentration beside the values). 350,000 tested, 1.6% active. AID 720706;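 active means significant combined selectivity score with lowered wild-type GFP, culture density cut under 30%, mutant RFP and density less affected; inactive means any of these conditions unmet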; further: one replicate is shown; some compounds called inactive have numbers as strong as hits
E coli growth – blocks Escherichia coli growth; OD600, 23 h; stronger effect = lower value; OD600 absorbance (concentration not given with the values); 330,000 tested, 0.21% active;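 active means OD600 absorbance below the run mean of sample wells minus 3.6 SD, in any replicate, cut at about 0.56 in these data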;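 further: stock transfer was 300 nL into about 60 µL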
T cruzi inh – blocks replication of Trypanosoma cruzi | T. cruzi beta-gal in NIH3T3, luminescence, 90 h | inhibition, % (test concentration not listed) | 300,000 tested, 1.4% active;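 active means mean inhibition across valid replicates above about 55%, limit read from the data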;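 further: signal also drops with host cell toxicity which is not excluded here; 0% = plate median of DMSO wells and 100% = zero luminescence signal; higher percent means less beta-gal luminescence so fewer parasites; stock transfer was 50 nL into about 50 µL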
Ecoli rRNA inh OD600 – further read-out of Ecoli rRNA inh, marked with its call; OD600 change, %; measured here: OD600 growth;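 optical density of the mix in the first replicate; 0 = DMSO median and -100 = no signal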
Ecoli rRNA inh RFP – also measured in Ecoli rRNA inh; calls as there; RFP signal change, %; measured here: RFP humanized mutant strains;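 first replicate; 0 = DMSO median and -100 = no signal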
* marks the source's active call; other numbers are inactive results. This is a subset; count on the stated rates, not on these rows.

`Cc1ccc(C(=O)C2C(c3ccc(-c4ccccc4[N+](=O)[O-])o3)NC(=O)NC2(O)C(F)(F)F)cc1` (centres undefined) gave UCH37 inh 4.3, A1 inh 0.0, Beta apoptosis -12, Ecoli rRNA inh -51, E coli growth 0.68, T cruzi inh 24, Ecoli rRNA inh OD600 -69 and Ecoli rRNA inh RFP -6.3.
Screening CCOC(=O)C1=NNC2C(=O)N(C3CCCCC3)C(=O)C12 (centres undefined) returned UCH37 inh -1.9, A1 inh 1.2, Beta apoptosis -11, E coli growth 0.69 and T cruzi inh -2.
`Cc1ccc(NC(=S)N2CCN(C)CC2)c(C)c1` gave FGF22 binding inactive, UCH37 inh -0.6, A1 inh -0.3, AF4-AF9 inh 0.7, Beta apoptosis -1, E coli growth 0.69 and T cruzi inh -17.
`COc1ccc(CNC(=O)COC(=O)CCC2CCCCC2)cc1` gave UCH37 inh 3.4, A1 inh 0.5, Beta apoptosis -4, E coli growth 0.68 and T cruzi inh -14.
`O=S(=O)(Nc1ccc(-c2cn3ccccc3n2)cc1)c1ccccc1` gave FGF22 binding inactive, UCH37 inh -2.9, A1 inh -0.8, AF4-AF9 inh -17, Beta apoptosis -14, Ecoli rRNA inh -9, E coli growth 0.69, T cruzi inh -5, Ecoli rRNA inh OD600 -11 and Ecoli rRNA inh RFP -7.5.
Cc1ccc(N2C(=O)Nc3ccc(Br)cc3C2(O)C(=O)NCCCN(C)C)cc1C (centres undefined) was read as UCH37 inh 4.9, A1 inh -0.5, Beta apoptosis -2, E coli growth 0.73 and T cruzi inh -13.
`Cc1c(C)n(CCCN(C)C)c2ncnc(NCc3ccccc3)c12` gave FGF22 binding inactive, UCH37 inh -0.7, A1 inh 0.3, AF4-AF9 inh 6.6, Beta apoptosis -5, Ecoli rRNA inh 7, E coli growth 0.68, T cruzi inh 55*, Ecoli rRNA inh OD600 12 and Ecoli rRNA inh RFP 0.0.
For COc1ccc(OC)c(C2C3=C(COC3=O)Nc3cc4c(cc32)OCO4)c1 (centres undefined) the results were UCH37 inh -16, Beta apoptosis 50, E coli growth 0.68 and T cruzi inh 0.
Screening COc1cccc(CNc2ccc(N3CCC(C)CC3)cc2)c1OC returned UCH37 inh 2.6, A1 inh 1.2, Beta apoptosis 18, E coli growth 0.73 and T cruzi inh 48.
`Cc1cccc(C)c1NC(=S)NCCSc1ccc(Cl)cc1` gave FGF22 binding inactive, UCH37 inh 1.7, A1 inh -0.5, AF4-AF9 inh 1.4, Beta apoptosis 11, Ecoli rRNA inh -26, E coli growth 0.65, T cruzi inh 36, Ecoli rRNA inh OD600 -56 and Ecoli rRNA inh RFP 17.

In the list so far, these have four or more nitrogen atoms.
Cc1ccc(N2C(=O)Nc3ccc(Br)cc3C2(O)C(=O)NCCCN(C)C)cc1C (centres undefined) was read as UCH37 inh 4.9, A1 inh -0.5, Beta apoptosis -2, E coli growth 0.73 and T cruzi inh -13.
`Cc1c(C)n(CCCN(C)C)c2ncnc(NCc3ccccc3)c12` gave FGF22 binding inactive, UCH37 inh -0.7, A1 inh 0.3, AF4-AF9 inh 6.6, Beta apoptosis -5, Ecoli rRNA inh 7, E coli growth 0.68, T cruzi inh 55*, Ecoli rRNA inh OD600 12 and Ecoli rRNA inh RFP 0.0.

(cont.)
C=CCSc1nccc(-c2cc(Cl)sc2Cl)n1 was read as UCH37 inh 4.8, A1 inh 1.5, Beta apoptosis -2, E coli growth 0.79 and T cruzi inh 3.
`CC1=CCC(C(=O)O)C(C(=O)Nc2cccnc2)C1` (centres undefined) gave FGF22 binding inactive, UCH37 inh 1.2, A1 inh 0.9, AF4-AF9 inh -0.8, Beta apoptosis 0, Ecoli rRNA inh 13, E coli growth 0.66, T cruzi inh -7, Ecoli rRNA inh OD600 8 and Ecoli rRNA inh RFP 1.8.
Screening COc1ccc(C(=O)C=Cc2cccs2)c(O)c1 returned FGF22 binding inactive, UCH37 inh -0.3, AF4-AF9 inh 15, Ecoli rRNA inh -7, E coli growth 0.64, Ecoli rRNA inh OD600 -5 and Ecoli rRNA inh RFP -4.2.
For Cc1ccc(N2CCN(S(=O)(=O)c3ccc(-n4cnnn4)cc3)CC2)c(C)c1 the results were FGF22 binding inactive, UCH37 inh 0.7, A1 inh 0.4, AF4-AF9 inh -0.3, Beta apoptosis 5, Ecoli rRNA inh 18, E coli growth 0.64, T cruzi inh -4, Ecoli rRNA inh OD600 9 and Ecoli rRNA inh RFP 0.5.
Screening Cc1cc(C)c(NC(=O)CNC(=O)COC(=O)CN2C(=O)NC3(CCCC3)C2=O)c(C)c1 returned FGF22 binding inactive, UCH37 inh 1.0, A1 inh 0.3, AF4-AF9 inh -5.3, Beta apoptosis -2, Ecoli rRNA inh 2, E coli growth 0.59, T cruzi inh -27, Ecoli rRNA inh OD600 2 and Ecoli rRNA inh RFP -1.6.
Screening COc1cc(-c2nc3cnccn3c2NC(C)(C)CC(C)(C)C)ccc1O returned FGF22 binding inactive, UCH37 inh -105, A1 inh 0.6, AF4-AF9 inh -6.7, Beta apoptosis 11, Ecoli rRNA inh 4, E coli growth 0.69, T cruzi inh 19, Ecoli rRNA inh OD600 12 and Ecoli rRNA inh RFP 2.2.
`CC(C)(C)OC(=O)NC(CO)c1cn([C@@H](Cc2cc3ccccc3[nH]2)C(=O)N2CCN(C(=O)OC(C)(C)C)CC2)nn1` (some centres undefined) gave FGF22 binding inactive, UCH37 inh 1.6, A1 inh 0.5, AF4-AF9 inh -0.9, Beta apoptosis 1, Ecoli rRNA inh 11, T cruzi inh -3, Ecoli rRNA inh OD600 11 and Ecoli rRNA inh RFP 0.9.
For COc1ccc(-c2csc(Cc3nnc(N4CCOCC4)n3-c3ccccc3)n2)cc1 the results were UCH37 inh 3.6, A1 inh -0.5, Beta apoptosis 5, E coli growth 0.69 and T cruzi inh -7.
COc1ccccc1C(=O)OCC(=O)Nc1cccc(S(=O)(=O)NC2=NCCCCC2)c1 was read as FGF22 binding inactive, UCH37 inh -0.1, A1 inh -0.6, AF4-AF9 inh -1.0, Beta apoptosis -3, Ecoli rRNA inh 3, E coli growth 0.68, Ecoli rRNA inh OD600 1 and Ecoli rRNA inh RFP -1.0.
COc1ccc(CN(C(=O)c2cnccn2)C(C(=O)Nc2ccc(F)cc2)c2ccccc2)cc1 (centres undefined) was read as UCH37 inh 7.8, A1 inh 0.5, Beta apoptosis -4 and E coli growth 0.67.

Molecules shown so far with a Cl atom, in the order listed:
`Cc1cccc(C)c1NC(=S)NCCSc1ccc(Cl)cc1` gave FGF22 binding inactive, UCH37 inh 1.7, A1 inh -0.5, AF4-AF9 inh 1.4, Beta apoptosis 11, Ecoli rRNA inh -26, E coli growth 0.65, T cruzi inh 36, Ecoli rRNA inh OD600 -56 and Ecoli rRNA inh RFP 17.
C=CCSc1nccc(-c2cc(Cl)sc2Cl)n1 was read as UCH37 inh 4.8, A1 inh 1.5, Beta apoptosis -2, E coli growth 0.79 and T cruzi inh 3.

Other entries follow.
`O=C(c1ccc(OC2CCN(Cc3ccccn3)CC2)cc1)N1CCC[C@H]1CO` gave FGF22 binding inactive, UCH37 inh -0.5, A1 inh -0.9, AF4-AF9 inh -0.5, Ecoli rRNA inh 11, E coli growth 0.63, T cruzi inh -8, Ecoli rRNA inh OD600 12 and Ecoli rRNA inh RFP 4.2.
Screening COc1ccc(S(=O)(=O)N2CCCCC2)cc1NC(=O)c1ccc([N+](=O)[O-])o1 returned FGF22 binding inactive, A1 inh 0.0, AF4-AF9 inh -2.9, Beta apoptosis 9, Ecoli rRNA inh 10, T cruzi inh 55*, Ecoli rRNA inh OD600 11 and Ecoli rRNA inh RFP -7.2.
For CCC1CN(C(=O)NCc2ccc(F)cc2)c2cc(Cl)ccc2O1 (centres undefined) the results were FGF22 binding inactive, UCH37 inh 5.6, A1 inh 0.6, AF4-AF9 inh -2.1, Beta apoptosis 4, Ecoli rRNA inh -21, E coli growth 0.68, T cruzi inh -4, Ecoli rRNA inh OD600 -26 and Ecoli rRNA inh RFP -10.
`COc1ccc(CC(=O)Nc2c3c(nn2-c2cccc(Cl)c2)CS(=O)C3)cc1` (centres undefined) gave UCH37 inh 4.8, A1 inh 0.5, Beta apoptosis -12, E coli growth 0.72 and T cruzi inh -2.
For COc1cccc(CNC(=O)CCCc2c[nH]c3ccccc23)c1 the results were FGF22 binding inactive, UCH37 inh 0.8, A1 inh 1.0, AF4-AF9 inh 0.8, Beta apoptosis -3, Ecoli rRNA inh -8, E coli growth 0.74, T cruzi inh 8, Ecoli rRNA inh OD600 -10 and Ecoli rRNA inh RFP 0.4.
For O=C(NCCc1ccc(F)cc1)C(=O)NCC1CCCN1S(=O)(=O)c1ccccc1 (centres undefined) the results were FGF22 binding inactive, UCH37 inh 0.2, A1 inh 0.1, AF4-AF9 inh -17, Beta apoptosis 1, Ecoli rRNA inh -2, E coli growth 0.61, T cruzi inh 2, Ecoli rRNA inh OD600 -9 and Ecoli rRNA inh RFP -1.8.
`CC(C)Cn1c(N)c(C(=O)COC(=O)c2ccc(Br)cc2)c(=O)n(C)c1=O` gave FGF22 binding inactive, UCH37 inh 5.5, A1 inh -0.6, AF4-AF9 inh -0.7, Beta apoptosis 7 and E coli growth 0.68.
Screening CC(C(=O)Oc1ccc2c(c1)OCO2)N1C(=O)c2ccccc2C1=O (centres undefined) returned UCH37 inh 3.4, A1 inh -0.1, Beta apoptosis 1, E coli growth 0.68 and T cruzi inh -5.
For Cc1ccc(C)c(N(C)C(=O)c2ccc3c(=O)n4c(nc3c2)CCCCC4)c1 the results were FGF22 binding inactive, UCH37 inh 5.5, A1 inh 4.2, AF4-AF9 inh -1.4, Beta apoptosis 8, Ecoli rRNA inh -14, E coli growth 0.7, T cruzi inh 1, Ecoli rRNA inh OD600 -15 and Ecoli rRNA inh RFP 1.9.
Screening Cc1ccc2nc(NC(=O)Cc3cccs3)sc2c1 returned UCH37 inh -1.9, A1 inh -3.7, Beta apoptosis 3, E coli growth 0.74 and T cruzi inh 2.
For Cn1c(C(=O)NCCN2CCN(c3ccccc3F)CC2)cc2c(=O)n(C)c3ccccc3c21 the results were FGF22 binding inactive, UCH37 inh -1.7, A1 inh -1.6, AF4-AF9 inh -2.1, Beta apoptosis 2, Ecoli rRNA inh -2, E coli growth 0.76, T cruzi inh 16, Ecoli rRNA inh OD600 -7 and Ecoli rRNA inh RFP -1.0.
CC(=O)Oc1ccccc1C1=NN(C(C)=O)C(c2ccccc2)C1 (centres undefined) was read as FGF22 binding inactive, UCH37 inh 3.0, A1 inh 0.5, AF4-AF9 inh -0.3, Beta apoptosis 0, Ecoli rRNA inh 2, E coli growth 0.67, T cruzi inh -1, Ecoli rRNA inh OD600 0 and Ecoli rRNA inh RFP 0.8.
CCOC(=O)c1sc(NC(=O)CSc2nnnn2-c2ccc(C)cc2)c(C(=O)OCC)c1C was read as UCH37 inh 0.5, A1 inh -0.6, Beta apoptosis 6, E coli growth 0.71 and T cruzi inh -4.
